Screens from PubChem BioAssay.
Resorufin fluor: qHTS Assay for Spectroscopic Profiling in Resorufin Spectral Region; Compound fluorescence, resorufin region 547/598 nm, buffer; stronger effect = higher value; max dye-equivalent concentration, M; hit rate 0.04% among 59,000; AID 588, 2007; active = above 10 nM dye equivalent; inconclusive = 1 to 10 nM; inactive = 1 nM or less; a few of its hits are not listed in these tables; further: highest value over a series up to 38 µM
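Read-out: intrinsic compound fluorescence at ex 547/em 598 nm after 15 min at RT in pH 8.0 Tris (100 mM). Values expressed as resorufin-equivalent concentration from per-plate standard series.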
A647 autofl: qHTS Assay for Spectroscopic Profiling in A647 Spectral Region; Compound fluorescence, A647 channel (570/671 nm), Tris buffer; max dye-equivalent concentration, M; 59,000 tested, under 10 active; active means above 1 µM dye equivalent; inconclusive means 0.1 to 1 µM; inactive means 0.1 µM or less;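 further: values scaled relative to a standard on each plate; highest value over a series up to 38 µM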
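Spectral profiling of library compounds in pH 8.0 Tris: 15 min room-temperature incubation, single ex/em pair (570/671 nm), response normalized to Alexa 647 equivalents.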
AID923: qHTS Assay for Allosteric/Competitive Inhibitors of Caspase-1: Spectroscopic Profiling in AFC Spectral Region | hit rate 1.1% among 75,000 | compound fluorescence, AFC spectral region (405/520 nm); almost no hit is shown here | AID 923, 2007 | Potency, µM (series often up to 57.5 µM), without a hit: at the top dose fluorescence increase, most hits filed as activators; active means well fitted activation curve with a large enough effect; inconclusive means small, poorly fitted or top-dose-only effect;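 further: potency means the concentration at half of the fitted maximal effect; 0% is about no effect; scaled to a free AFC standard on each plate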
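Titrations up to 57 uM read every 20 sec for 3 min (405/520 nm) with 50 nM caspase 1 and 5 uM Ac-WEHD-AFC, pH 7.5 HEPES buffer. Fluorescence-vs-time intercept gave baseline, scaled against on-plate AFC standard.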
A488 autofl: qHTS Assay for Spectroscopic Profiling in A488 Spectral Region | compound autofluorescence, A488 spectral region, dye equivalency; stronger effect = higher value | max dye equivalency, M | hit rate 0.1% among 59,000 | AID 591, 2007; active = above 10 nM dye equivalent; inconclusive = 1 to 10 nM; inactive = 1 nM or less; about half of its hits are not listed in these tables;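 further: highest value over a series up to 38 µM; compound alone in buffer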
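Readout is A488 dye-equivalent concentration, calibrated by a per-plate six-point Alexa 488 series. Compounds in 100 mM Tris buffer pH 8.0 were incubated 15 min at room temperature. Plates were imaged using 480 nm excitation/540 nm emission filters.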
TSHR ag: qHTS Assay for Agonists of the Thyroid Stimulating Hormone Receptor. HEK293-CNG-TSHR cells (CNG channel as cAMP sensor), membrane potential dye, cAMP. AID 926, 2007. Potency, µM (series often up to 57.1 µM), inactives show at the highest dose activation, usual class: activators. hit rate 0.48% among 73,000; active = well fitted activation curve of enough size with the parental cells flat; inconclusive = any curve in the parental cells; inactive = parental cells flat and receptor cells flat or falling; further: potency means the concentration at half of the fitted maximal effect; % of control where 0% means no effect; weak receptor curves with flat parental cells got no call and are not listed
Target sequence (P16473 whole entry, looked up): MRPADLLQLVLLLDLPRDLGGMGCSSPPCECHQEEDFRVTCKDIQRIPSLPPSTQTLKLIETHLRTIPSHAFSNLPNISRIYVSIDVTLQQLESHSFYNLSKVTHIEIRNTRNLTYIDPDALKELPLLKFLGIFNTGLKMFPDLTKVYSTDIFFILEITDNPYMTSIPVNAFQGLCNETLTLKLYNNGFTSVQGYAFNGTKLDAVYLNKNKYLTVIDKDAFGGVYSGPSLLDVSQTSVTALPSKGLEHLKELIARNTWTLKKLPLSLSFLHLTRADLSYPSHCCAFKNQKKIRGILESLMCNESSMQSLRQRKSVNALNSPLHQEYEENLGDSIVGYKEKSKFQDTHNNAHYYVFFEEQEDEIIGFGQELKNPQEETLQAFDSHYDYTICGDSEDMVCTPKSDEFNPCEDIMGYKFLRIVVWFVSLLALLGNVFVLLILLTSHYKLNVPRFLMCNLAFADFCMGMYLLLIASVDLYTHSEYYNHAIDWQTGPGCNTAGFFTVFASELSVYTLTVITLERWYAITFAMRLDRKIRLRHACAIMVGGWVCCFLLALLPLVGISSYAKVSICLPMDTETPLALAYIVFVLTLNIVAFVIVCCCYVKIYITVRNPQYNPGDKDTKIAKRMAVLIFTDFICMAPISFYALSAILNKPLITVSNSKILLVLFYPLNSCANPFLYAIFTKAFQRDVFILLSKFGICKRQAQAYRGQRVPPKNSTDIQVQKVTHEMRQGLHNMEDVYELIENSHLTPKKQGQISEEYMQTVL
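HEK 293 cells stably expressing TSHR and a cAMP-gated CNG channel; parental CNG-only cells as counterscreen. Cells preloaded 60 min with membrane potential dye plus 100 uM RO 20-1724, then compound 30 min; fluorescence read at 590 nm.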
Starred values were filed as active, the others as inactive; [ ] = remark or other dose.

A first look:
Screening CCCCC(NC(C)=O)c1nc2ccccc2n1CCCC (centres undefined) returned Resorufin fluor inactive, A647 autofl 1.49e-08, AID923 -1.1%, A488 autofl inactive and TSHR ag 7.1%[11.4 µM].
COc1cc(-c2n[nH]c(=O)o2)cc(OC)c1OC was read as Resorufin fluor inactive, A647 autofl 2.12e-08, AID923 -2.7%, A488 autofl inactive and TSHR ag 13.9%.

Main list (from the top)
Screening CCCCC(NC(C)=O)c1nc2ccccc2n1CCCC (centres undefined) returned Resorufin fluor inactive, A647 autofl 1.49e-08, AID923 -1.1%, A488 autofl inactive and TSHR ag 7.1%[11.4 µM].
COc1cc(-c2n[nH]c(=O)o2)cc(OC)c1OC was read as Resorufin fluor inactive, A647 autofl 2.12e-08, AID923 -2.7%, A488 autofl inactive and TSHR ag 13.9%.
For Cn1nc(-c2ccc(Cl)cc2)c2cc(C(=O)N3CCN(c4ccccn4)CC3)sc21 the results were AID923 -1.6% and TSHR ag inconclusive.
Screening COc1ncc2ncc(=O)n(CCc3ccccc3)c2n1 returned Resorufin fluor inactive, A647 autofl 1.97e-08, AID923 1.9% and A488 autofl inactive.
For CCN1CCCC1CNC(=O)CSc1cc(=O)n(CC)c2ccccc12 (centres undefined) the results were Resorufin fluor inactive, A647 autofl 1.31e-08, AID923 1.2%, A488 autofl inactive and TSHR ag 0.4%.
For C=CCc1cccc(/C=N/n2cnnc2)c1O the results were Resorufin fluor inactive, A647 autofl 7.55e-08 and A488 autofl inactive.
`CCOC(=O)c1oc2cc(O)ccc2c(=O)c1-c1ccccc1OC` gave AID923 1.5% and TSHR ag inconclusive.
`CCOc1cc(NS(=O)(=O)CC)c(OCC)cc1NC(=O)c1ccco1` gave Resorufin fluor inactive, A647 autofl 1.31e-08, AID923 0.2%, A488 autofl inactive and TSHR ag 7.4%.
`O=C1C2=CC[C@H]3C(=O)N(c4cccc(Oc5ccccc5)c4)C(=O)[C@@H]3[C@@H]2[C@H](O)[C@@H]2O[C@H]12` gave AID923 2.5%[11.5 µM] and TSHR ag -1.7%[11.4 µM].
Cc1cc(C)n2c(=S)[nH]nc2n1 was read as Resorufin fluor inactive, A647 autofl 4.78e-08, AID923 1.7%, A488 autofl inactive and TSHR ag 24.3%.
`CCCSc1nnc2c(n1)OC(c1cccn1C)N(C(C)=O)c1ccccc1-2` (centres undefined) gave AID923 0.1% and TSHR ag 7.4%.
Screening CC(=O)OC1C(OC(C)=O)N(C(C)=O)C(=O)N1C(C)=O (centres undefined) returned Resorufin fluor inactive, A647 autofl 1e-09, AID923 -0.4%, A488 autofl inactive and TSHR ag 1.2%.
OC(COc1ccc2ccccc2c1)Cn1ccnc1 (centres undefined) was read as Resorufin fluor inactive, A647 autofl 2.02e-08, AID923 0.9%, A488 autofl inactive and TSHR ag 8.9%.
`O=C(Nc1ccc(Cl)cc1C(=O)Nc1ccncc1)c1ccco1` gave Resorufin fluor inactive, A647 autofl 2.21e-08, AID923 -0.8%, A488 autofl inactive and TSHR ag inconclusive.
Screening Cn1c(NCC(O)c2ccccc2)nc2c1c(=O)n(Cc1ccc(Cl)c(Cl)c1)c(=O)n2C (centres undefined) returned Resorufin fluor inactive, A647 autofl 7.89e-08 and A488 autofl inactive.

Three records picked at random from the list so far:
`O=C1C2=CC[C@H]3C(=O)N(c4cccc(Oc5ccccc5)c4)C(=O)[C@@H]3[C@@H]2[C@H](O)[C@@H]2O[C@H]12` gave AID923 2.5%[11.5 µM] and TSHR ag -1.7%[11.4 µM].
OC(COc1ccc2ccccc2c1)Cn1ccnc1 (centres undefined) was read as Resorufin fluor inactive, A647 autofl 2.02e-08, AID923 0.9%, A488 autofl inactive and TSHR ag 8.9%.
`CCOc1cc(NS(=O)(=O)CC)c(OCC)cc1NC(=O)c1ccco1` gave Resorufin fluor inactive, A647 autofl 1.31e-08, AID923 0.2%, A488 autofl inactive and TSHR ag 7.4%.

More compounds follow.
`CCn1c(CSc2nc(C)cc(C)n2)nnc1SCC(=O)Nc1nc(-c2ccccc2)cs1` gave Resorufin fluor inactive, A647 autofl 1.5e-09, AID923 1.3% and A488 autofl inactive.
`CCOc1ccc(NC(=O)CN2CCN(CC(=O)c3ccc(OCC)cc3)CC2)cc1` gave Resorufin fluor inactive, A647 autofl 4.56e-08, AID923 0.7%, A488 autofl inactive and TSHR ag 4.1%.
`Cn1c(=O)c2[nH]c([C@@H]3CC(=O)C[C@H](c4nc5c([nH]4)c(=O)n(C)c(=O)n5C)N3)nc2n(C)c1=O` gave Resorufin fluor inactive, A647 autofl 1e-09, AID923 1.2%[11.5 µM], A488 autofl inactive and TSHR ag -0.8%[11.4 µM].
Screening Cn1c(=O)c(-c2ccc(F)c(F)c2)nc2cncnc21 returned Resorufin fluor inactive, A647 autofl 1e-09, AID923 5.9%, A488 autofl inactive and TSHR ag -11.5%.
For CCCc1c(OCCCOc2ccc(OCC(=O)O)cc2)ccc(C(C)=O)c1O the results were Resorufin fluor inactive, A647 autofl 3.16e-08, AID923 -0.5%, A488 autofl inactive and TSHR ag -2.7%.
For COc1ccc(NC(=O)CN(C2CCCCC2)S(C)(=O)=O)cc1OC the results were Resorufin fluor inactive, A647 autofl 1e-09, AID923 -1.7%, A488 autofl inactive and TSHR ag 0.8%.
`COCCOC(=O)c1c(C)n(C)c2ccc(OC(=O)C3CC3)cc12` gave Resorufin fluor inactive, A647 autofl 7.8e-09, AID923 -0.5%, A488 autofl inactive and TSHR ag -0.6%.
Screening CCCn1c(N)c(Sc2ccc(Cl)cc2)c(=O)n(CCC)c1=O returned Resorufin fluor inactive, A647 autofl 1.13e-08, AID923 -1.4%, A488 autofl inactive and TSHR ag -2.2%.
`Cc1oc(-c2ccccc2F)nc1CS(=O)(=O)CC(=O)NC1CCCC1` gave AID923 4.1% and TSHR ag 13.0%.
For COCCNC(=O)c1ccc2c(c1)NC(=O)CS2 the results were Resorufin fluor inactive, A647 autofl 1.02e-08, AID923 -1.9%, A488 autofl inactive and TSHR ag -2.4%.
For CCOC(=O)c1ccc(-c2ccc(C(=O)Nc3cccnc3)o2)cc1 the results were AID923 1.9% and TSHR ag 7.9%.
COc1cccc(C2C(C#N)=C(N)Oc3cc(C)n(Cc4ccco4)c(=O)c32)c1 (centres undefined) was read as Resorufin fluor inactive, A647 autofl 1e-09, AID923 -0.7%, A488 autofl inactive and TSHR ag 18.0%.
Cn1c(SCC(=O)Nc2ccc3cn[nH]c3c2)nnc1-c1cccs1 was read as Resorufin fluor inactive, A647 autofl 2.75e-08, AID923 -0.1%, A488 autofl inactive and TSHR ag -2.0%.
Screening CCCc1cc(=O)[nH]c(SCC(=O)N(C)CC(=O)Nc2ccc(C)cc2)n1 returned Resorufin fluor inactive, A647 autofl 2.7e-09, AID923 -1.1%, A488 autofl inactive and TSHR ag 1.5%.
For COc1ccc(N2CCN(CCNC(=O)c3cccn4c(=O)c5ccc(Cl)cc5nc34)CC2)cc1 the results were Resorufin fluor inactive, A647 autofl 4.22e-08, AID923 0.0%, A488 autofl inactive and TSHR ag -2.4%.
`CC(C)Cc1nc(N2CCN(C(=O)Cc3ccccc3)CC2)c(C#N)c2c1COC(C)(C)C2` gave Resorufin fluor inactive, A647 autofl 3.09e-08 and A488 autofl inactive.
Cc1nonc1OCCNC(=O)C12CC3CC(CC(C3)C1)C2 was read as Resorufin fluor inactive, A647 autofl 2.06e-08, AID923 1.4%, A488 autofl inactive and TSHR ag 12.6%.
Screening O=C(Nc1ccccc1)Nc1cccc2cccnc12 returned Resorufin fluor inactive, A647 autofl 1e-09, AID923 -0.1%, A488 autofl inactive and TSHR ag -5.2%.
`Cc1ccc(S(=O)(=O)Nc2ccc(-c3nnc(SCC#N)n3C)cc2)cc1` gave Resorufin fluor inactive, A647 autofl 4.6e-09, AID923 -2.8%, A488 autofl inactive and TSHR ag -0.5%.
For COc1ccc2nc(NC(=O)CCc3nc(-c4ccccc4F)no3)sc2c1 the results were Resorufin fluor inactive, A647 autofl 2.95e-08, AID923 -0.5%, A488 autofl inactive and TSHR ag -4.3%.
For COc1ccc2cc(C(=O)Nc3c(C)n(C)n(-c4ccccc4)c3=O)sc(=O)c2c1OC the results were AID923 0.6% and TSHR ag -4.5%.
`CC(=O)Nc1cccc(NC(=O)CSc2nnnn2C)c1` gave Resorufin fluor inactive, A647 autofl 1e-09, AID923 -1.0%, A488 autofl inactive and TSHR ag -1.9%.
Screening Cc1csc(SCC(=O)Nc2nc(-c3ccccc3)cs2)n1 returned Resorufin fluor inactive, A647 autofl 3.57e-08, AID923 0.8%, A488 autofl inactive and TSHR ag 6.5%.
O=C(Cn1ccc2ccccc2c1=O)NCCC(=O)Nc1ccc2c(c1)OCCO2 was read as Resorufin fluor inactive, A647 autofl 1e-09, AID923 0.2%, A488 autofl inactive and TSHR ag 19.4%.
For COc1cccc2[nH]c3c(N4CCCCC4)ncnc3c12 the results were Resorufin fluor inactive, A647 autofl 3.92e-08, AID923 1.0%, A488 autofl inactive and TSHR ag 3.4%.
`O=C(Cc1ccccc1)NC1CCN(S(=O)(=O)c2cccc(F)c2)CC1` gave Resorufin fluor inactive, A647 autofl 6.4e-09, AID923 0.5% and A488 autofl inactive.
For CN(C)C(=O)CCc1nc(-c2ccc(C(C)(C)C)cc2)no1 the results were Resorufin fluor inactive, A647 autofl 1.85e-08, AID923 -0.6%, A488 autofl inactive and TSHR ag inconclusive.
For CCOc1ccc(-c2nc(-c3ccc(OC)cc3)no2)cc1OCC the results were Resorufin fluor inactive, A647 autofl 4e-09, AID923 -1.4%, A488 autofl inactive and TSHR ag -0.8%.
Screening CCCCC[C@H](CC(=O)NO)C(=O)N[C@@H](C(=O)N1CCC[C@H]1CO)C(C)C returned Resorufin fluor inactive, A647 autofl 2.97e-08, AID923 -7.0%, A488 autofl inactive and TSHR ag 5.2%.
Screening O=C(O)C1CCCN1S(=O)(=O)c1ccc(Br)s1 (centres undefined) (tested in a mixture with another compound) returned Resorufin fluor inactive, A647 autofl 2.4e-09, AID923 -0.3%, A488 autofl inactive and TSHR ag -3.0%.
For CC(C)(C)C(=O)Nc1ccccc1C(=O)NCc1ccco1 the results were AID923 -0.6% and TSHR ag 4.5%.
For CC(CN1CCCCC1)OC(=O)c1cc2ccccc2o1 (centres undefined) the results were Resorufin fluor inactive, A647 autofl 1.23e-08, AID923 -0.7%, A488 autofl inactive and TSHR ag 16.1%.
`CC(=O)N1CCN(c2ccc(NC(=O)c3ccccc3Br)cc2Cl)CC1` gave Resorufin fluor inactive, A647 autofl 7.72e-08, AID923 0.2%, A488 autofl inactive and TSHR ag 1.0%.
Cc1ccc(-n2ncc3c(NCc4ccccn4)ncnc32)c(C)c1 was read as Resorufin fluor inactive, A647 autofl 1e-09, AID923 -0.3%, A488 autofl inactive and TSHR ag -6.6%.
`CCN(CC)S(=O)(=O)c1ccc(-c2nnc(SCC(=O)N3CCc4ccccc43)o2)cc1` gave Resorufin fluor inactive, A647 autofl 1.3e-09, AID923 1.6%, A488 autofl inactive and TSHR ag 2.1%.
COC(=O)c1ccc(CNC(=O)CSc2nnc(COc3ccccc3)n2C)o1 was read as Resorufin fluor inactive, A647 autofl 3.3e-09, AID923 -2.3%, A488 autofl inactive and TSHR ag inconclusive.
`Cn1nc(-c2ccc(Cl)cc2)c2cc(C(=O)N3CCC(N4CCCCC4)CC3)sc21` gave Resorufin fluor inactive, A647 autofl 2.99e-08, AID923 -1.7%, A488 autofl inactive and TSHR ag 5.6%.
For CSc1nnc(CNC(=O)c2ccccc2)n1-c1cccc(C)c1 the results were AID923 2.4% and TSHR ag inconclusive.
For COc1ccc(C)cc1S(=O)(=O)N(CC(N)=O)Cc1ccccc1 the results were Resorufin fluor inactive, A647 autofl 2.7e-08, AID923 0.6%, A488 autofl inactive and TSHR ag -1.9%.
C=CCOc1ccccc1/C=N/O was read as Resorufin fluor inactive, A647 autofl 2.84e-08, AID923 -1.9%, A488 autofl inactive and TSHR ag inconclusive.

A portion of the library (hit frequency here may not be typical).
